Compound activity from PubChem BioAssay.
VDR inh: blocks the human vitamin D receptor | AID 504847 | 0.93% of 400,000 active | P11473 | Potency, µM, for the others: max response, negative = inhibition, usual class: inhibitors | VDR-SRC2-3 peptide fluorescence polarization, 2 h; active means well fitted inhibition curve with a large enough effect; inconclusive means small, poorly fitted or top-dose-only effect, or another doubt; inactive means no such curve, though single readings can be large or run the other way; further: series mostly up to about 120 µM
Target sequence (P11473 whole entry, looked up): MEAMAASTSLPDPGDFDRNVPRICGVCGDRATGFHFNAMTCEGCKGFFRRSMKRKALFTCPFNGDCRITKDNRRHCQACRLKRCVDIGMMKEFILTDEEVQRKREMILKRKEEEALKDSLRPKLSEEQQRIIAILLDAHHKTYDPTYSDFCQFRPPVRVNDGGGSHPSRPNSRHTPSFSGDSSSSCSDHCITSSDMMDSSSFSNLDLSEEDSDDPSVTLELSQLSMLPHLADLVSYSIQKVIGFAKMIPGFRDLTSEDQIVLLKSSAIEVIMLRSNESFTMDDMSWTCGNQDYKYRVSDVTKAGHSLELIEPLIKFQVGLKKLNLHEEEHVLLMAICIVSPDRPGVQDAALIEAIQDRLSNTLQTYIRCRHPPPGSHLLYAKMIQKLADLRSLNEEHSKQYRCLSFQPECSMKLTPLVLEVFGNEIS
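Reagent solutions, kept cold and dark, are dispensed first; compounds are then pinned in at 23 nl, plates briefly spun, and incubated 2 h at ambient temperature. Inhibition of VDR–SRC2-3 peptide binding is read by fluorescence polarization.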
Numbers without * were called inactive; ? = inconclusive; & = joins results of further samples; [ ] = remark or other dose. On the % scale 0 is the no-effect control and ±100 the full control effect; potency means the concentration at half of the fitted maximal effect. This is a subset (hit frequency here may not be typical).

SMILES	VDR inh
Cc1ccc(-c2cc(C(F)F)nc(NCc3cccs3)n2)cc1	3%
O=S(=O)(NCC(Nc1ccccc1)c1ccccc1)c1ccc(Cl)cc1 (stereo not drawn)	-12%
CC(C)C(=O)Nc1ccc(NC(=S)NC(=O)c2ccccc2F)cc1	-2%
Cc1ccc2c(n1)CC(C)(C)CC2=O	13%
COc1ccc(C(C(=O)NC2CCCCC2)N(C(=O)c2sc(C)nc2C)c2ccccc2)cc1 (stereo not drawn)	-5%
O=C(CCNC(=O)c1ccccc1Cl)NCC(c1ccc(F)cc1)N1CCOCC1 (stereo not drawn)	5%
FC(F)Oc1ccc(NC(=S)NCc2cccnc2)cc1	2%
O=C(NCc1ccc2c(c1)OCO2)Nc1cccc(Cl)c1	1%
Cc1cc(C(=O)COC(=O)c2csc3c2CCCC3)c(C)n1C	-6%
CCCNC(=O)CN1C(=O)c2cccnc2Sc2ccccc21	7%
CC(C)NC(=O)CSc1nnc(C2CC2)n1-c1ccccc1	1%
Cc1cc(=O)[nH]c2ccc(S(=O)(=O)Nc3ccccc3)cc12	16%
CCOc1ccc(-n2c(=O)c3c4c(sc3n(Cc3cccc(C)c3)c2=O)CCCC4)cc1	1%
Cc1nn(Cc2ccccc2)c(C)c1NC(=O)c1cc2nc(-c3ccco3)cc(C(F)(F)F)n2n1	3%
Cc1ccc(Cl)cc1N1CCN(S(=O)(=O)c2cc(Br)cc3c2N(C(=O)C2CC2)CC3)CC1	-3%
O=C(Cn1nnc(-c2cccc(C(F)(F)F)c2)n1)N1CCCCCC1	-3%
CCc1ccc(OC(C)c2nnc(SCC(=O)Nc3ncccc3C)n2C)cc1 (stereo not drawn)	0%
C[C@H](N)c1nnc(SCC(=O)c2ccc(Cl)cc2)o1	2%
COc1ccc(S(=O)(=O)CCC(=O)N2CCN(c3ccccc3F)CC2)cc1	-20%
NC(=O)N/N=C/c1cc(Br)ccc1OC(=O)c1ccccc1	-11%
COc1ccc(CCC(=O)Nc2ccc(-c3noc(-c4ccc(OC)c(OC)c4)n3)cc2)cc1	-5%
COc1ccc(CCNC(=O)Cn2ncc3c(=O)oc4ccccc4c32)c(OC)c1	-24%
CCCCCNCc1ccc(Br)cc1	5%
Cc1ccccc1CN1C[C@@H]2C[C@@H](c3cn[nH]c3-c3ccc(F)cc3)N3CCC[C@@]23C1=O	8%
Cc1cc(NC(=O)c2ccc(F)cc2)n(CCOC(=O)c2ccc(F)cc2)n1	-23%
Cc1onc(-c2c(F)cccc2Cl)c1C(=O)N=C(N)N1CC(C)OC(C)C1 (stereo not drawn)	7%
Cc1ccccc1OCC(=O)NC(=S)Nc1ccccc1N1CCN(S(C)(=O)=O)CC1	-1%
CCOc1ccc(/C=N/NC(=O)c2c(-c3ccccc3)noc2C)cc1	-21%
Cc1c(OCc2ccc([N+](=O)[O-])cc2)ccc2c3c(c(=O)oc12)CCC3	3%
O=C(CCS(=O)(=O)c1ccccc1)Nc1ccc(-c2nc3ccccc3s2)cc1	-15%
O=C(Oc1ccc(Oc2ccccc2)cc1)N1CCC(O)CC1	-13%
O=C(NCc1ccccc1Cl)c1ccc(S(=O)(=O)NCc2ccco2)cc1	-2%
COc1ccc(C(=O)Nc2cccc3c2CCCC3)c(OC)c1	-11%
CCOc1ccc(C(=O)CCC(=O)NNC(=O)CCN2CCN(c3ccccc3)CC2)cc1	-18%
O=C(N/N=C/c1ccncc1)c1cccc(NC(=O)c2ccc(Cl)cc2)c1	11%
O=C(c1ccc2c(c1)OCO2)c1cn(Cc2ccc(Cl)cc2)c2ccc(F)cc2c1=O	-11%
O=C(N/N=C/c1ccc(Sc2nc3ccccc3s2)c([N+](=O)[O-])c1)c1ccccn1	14%
N=C1C(c2ccc(Br)cc2)=C(O)C2CCc3ccccc3N12 (stereo not drawn)	-24%
O=C(O)c1cccnc1SCCc1ccccc1	-1%
NC(=O)N/N=C/c1ccc(OCc2cccc(Cl)c2)cc1	-14%
Cc1occc1C(=O)N1CCN(c2ccc([N+](=O)[O-])cc2)CC1	-23%
CCOc1ccc(S(=O)(=O)N2CCC(N3CCN(Cc4ccc(F)cc4)C(=O)C3=O)CC2)cc1	-7%
NC(=O)C(=O)N/N=C1\CCc2ccccc21	-9%
O=C(CN1C(=O)NC2(CCCC2)C1=O)OCc1cccc(Br)c1	-16%
CCOC(=O)c1ccc(N2C(=O)CC(Nc3ccc(CCO)cc3)C2=O)cc1 (stereo not drawn)	-15%
C=C(C)Cn1c(C(C)NC(=O)CCC)nc2ccccc21 (stereo not drawn)	5%
C[C@H]1[C@H]2CC[C@H]3C4CC=C5C[C@@H](N(C)C)CC[C@]5(C)C4CC[C@]23CN1C (stereo partly drawn)	-1%
COc1cc(NC(=O)CN2C(=O)COc3ccccc32)cc(OC)c1	38%[activator]
COc1cc(C2CC(=O)Nc3n[nH]c(-c4ccccc4)c32)cc(OC)c1OC (stereo not drawn)	1%
Cc1cccc(N(CC(=O)Nc2ccccc2C(F)(F)F)S(=O)(=O)c2ccccc2)c1C	19%
CC(=O)Nc1cccc(-c2csc(Nc3ccc(Cl)cn3)n2)c1	-5%
FC(F)(F)c1ccc(Cl)c(N/N=C/c2ccc(N3CCOCC3)s2)c1	-6%
N#Cc1ccc(S(=O)(=O)NCCc2ccncc2)cc1	-4%
O=C(O)c1cccc(NC(=S)N/N=C/c2c[nH]c3ccccc23)c1	-12%
COc1ccc(Cl)cc1-c1nc(SCC(=O)NC2CCS(=O)(=O)C2)n[nH]1 (stereo not drawn)	-1%
CCNC(=O)Nc1cc(S(=O)(=O)Nc2ccc(OC)cc2)ccc1N1CCOCC1	10%
O=C(NCCC(=O)N1CCCC1)c1ccccc1Cl	-16%
Cc1ccc(C(=O)Cn2cnc3ccccc3c2=O)cc1	-9%
CCSc1nnc(NC(=O)CSc2nncc(=O)n2N)s1	-13%
O=C(CN1CCN(C(=O)c2ccco2)CC1)Nc1ccc(Br)cc1	-13%

Overlap with the part before: 2 compounds, followed by the next part.
SMILES	VDR inh
CCSc1nnc(NC(=O)CSc2nncc(=O)n2N)s1	-13%
O=C(CN1CCN(C(=O)c2ccco2)CC1)Nc1ccc(Br)cc1	-13%
COC(=O)c1ccc(/C=N/OCC(=O)NCCc2ccc(OC)c(OC)c2)cc1	8%
O=C(CCCc1nc(-c2ccc(Cl)cc2)no1)NC1CCCCC1	5%
Cc1cccc(Cc2c(C)nc3nc(SCc4ccccc4Cl)nn3c2C)c1	4%
CCOC(=O)c1ccccc1NC(=O)COC(=O)C(CC(C)C)NC(N)=O (stereo not drawn)	-22%
COc1ccc(NC(=O)c2ccccc2NC(=O)CSc2ccc(C)cc2)cc1	-7%
CCOc1ccc(N(CC(=O)NC2CCCC2)C(=O)CCC(=O)Nc2nc(C)cs2)cc1	-7%
O=C(C#Cc1ccccc1)c1ccco1	22µM*
Cc1noc(C)c1C(=O)N1CCC2(CCCN(c3ccccn3)C2)CC1	-11%
CN(C)NC(=S)Nc1cccc(Cl)c1	2%
Cc1cccc(CSc2ccc3nnc(-c4ccccn4)n3n2)c1	-6%
Cc1cc(C)cc(NC(=O)C2CCCN(c3cnccn3)C2)c1 (stereo not drawn)	12%
O=C1OCc2ccc(NC(=O)C3CC3)cc21	5%
Cn1c(=O)n(CCc2ccccc2)c(=O)c2c1nc1n2CCCN1CCc1ccccc1	-12%
O=C(O)c1ccc(N/C(=N\S(=O)(=O)c2ccc(Cl)cc2)c2ccccc2)cc1	-7%
CCOC(=O)c1ccc(CSc2nnc(-c3ccncc3)n2N)cc1	-4%

2 entries from above, set out differently:
smiles | VDR inh
Cc1noc(C)c1C(=O)N1CCC2(CCCN(c3ccccn3)C2)CC1 | -11%
Cn1c(=O)n(CCc2ccccc2)c(=O)c2c1nc1n2CCCN1CCc1ccccc1 | -12%

(list continues)
SMILES	VDR inh
Cc1cccc(C(=O)NNC2=C(C(=O)C(F)(F)F)CCC2)c1O	-1%
Cc1cc(NCc2ccccc2)n2ncc(-c3ccccc3)c2n1	2%
CN(C)S(=O)(=O)c1cc(NC(=O)COC(=O)/C=C/c2ccco2)ccc1Cl	?
CC1CC(NC(=O)/C=C/C(=O)O)CC(C)(C)C1 (stereo not drawn)	17%
Cc1ccccc1N1CCN(C2CCCN(C(=O)CCC(=O)N(C)C)C2)CC1 (stereo not drawn)	-12%
CCC(=O)Nc1nn(CC(C)C)c2nc3ccc(C)cc3cc12	-2%
COc1ccc(OC)c(S(=O)(=O)Nc2ccccc2C(=O)O)c1	-11%
Cc1ccc(N(Cc2ccco2)C(=O)c2ccc(N3CCCCC3)c([N+](=O)[O-])c2)cc1	1%
O=C(NCc1ccccc1)c1ccc(CS(=O)(=O)Cc2ccccc2F)o1	10%
Cc1ccc([C@H]2C(C(=O)O)=CC[C@@H](c3ccc(C)cc3)N2S(=O)(=O)c2ccccc2C)cc1	-11%
CCOP(=O)(OCC)c1nc(-c2cccc3ccccc23)oc1N1CCOCC1	-13%
Cc1cc(C)c(NC(=O)Cn2nc(-c3ccccc3)nc2-c2ccccc2)c(C)c1	6%
COc1ccccc1Cn1cc(C(=O)c2ccc(Cl)cc2)c(=O)c2ccccc21	6%
CCn1c(C)c(C2N3CC4(C)CN2CC(C)(C3)C4=O)c2ccccc21 (stereo not drawn)	-4%
O=C1/C(=C\c2ccccc2)SC(=S)N1CCC(=O)N1CCCCC1CCO (stereo not drawn)	9%

Fetched by compound from the list above (4):
SMILES	VDR inh
CCn1c(C)c(C2N3CC4(C)CN2CC(C)(C3)C4=O)c2ccccc21 (stereo not drawn)	-4%
O=C1/C(=C\c2ccccc2)SC(=S)N1CCC(=O)N1CCCCC1CCO (stereo not drawn)	9%
Cc1cccc(C(=O)NNC2=C(C(=O)C(F)(F)F)CCC2)c1O	-1%
COc1ccccc1Cn1cc(C(=O)c2ccc(Cl)cc2)c(=O)c2ccccc21	6%

Continued:
SMILES	VDR inh
CN(C)C(CNC(=O)CCc1c[nH]c2ccccc12)c1ccccc1 (stereo not drawn)	-2%
Cc1ccccc1CN1CCC(n2nccc2NC(=O)c2cccnc2)CC1	-13%
CCc1cccc(OCC(=O)Nc2ccc(S(=O)(=O)Nc3cc(C)nc(C)n3)cc2)c1	8%
CCCOC(=O)c1c(NC(=O)c2nc3ncccn3n2)sc(C(=O)OCC)c1C	-10%
CCC1c2ccc(C)n2CCN1C(=O)Nc1cc(Cl)ccc1OC (stereo not drawn)	37%[activator]
COC(=O)c1ccc(OCC(O)CN2C(=O)c3ccccc3C2=O)cc1 (stereo not drawn)	11%
CCc1ccc(N=CC23c4ccccc4C(c4ccccc42)C2C(=O)N(c4ccc(OC)cc4)C(=O)C23)cc1 (stereo not drawn)	9%
CC(=O)NC1=NN(C(C)=O)C(C)(c2cccs2)S1 (stereo not drawn)	-7%
COc1ccc(N(CC(=O)Nc2cccc(N(C)S(C)(=O)=O)c2)S(=O)(=O)c2ccc(F)cc2)cc1	13%
O=C(CS(=O)(=O)c1c[nH]c2ccccc12)NC1CCCCC1	-10%
CCCCC(CC)C(=O)Nc1cc(C(=O)NCc2ccc(C)cc2)ccc1N1CCC2(CC1)CC(c1cccc(Br)c1)=NO2 (stereo not drawn)	0%
Cc1cccc(NC(=O)CNC(=O)c2ccc(-n3cncn3)c([N+](=O)[O-])c2)c1C	-1%
Cc1nnc(NC(=O)CSc2cn(CCNC(=O)c3ccccc3)c3ccccc23)s1	-21%
COc1ccc(CNC(=O)/C(C)=C\C(=O)O)cc1	-12%
COc1ccc(C(=O)Nc2c(F)c(F)c(F)c(F)c2F)c(OC)c1	1%
CC1=NC(=O)C(N=Nc2cccc(O)c2)N1c1ccccc1 (stereo not drawn)	0%
O=C(Nc1ccccc1)[C@@H]1CC=C[C@@H]2CCN(Cc3ccccc3)C(=O)[C@@H]21	-1%
O=c1c2ccccc2ncn1-c1ccccc1F	-1%
CC(C)CCNC(=O)C(=O)Nc1c2c(nn1-c1ccc(Cl)cc1)CSC2	7%
COc1ccc(-c2[nH]n(-c3ccc([N+](=O)[O-])cc3)c(=O)c2C=NCC2CCCO2)cc1 (stereo not drawn)	11%
COc1ccc(-c2nc(CS(=O)(=O)CC(=O)NC3CCCCC3C)c(C)o2)cc1 (stereo not drawn)	?
Cc1ccc(-n2c3c(c(=O)[nH]c2=O)C(NS(=O)(=O)c2ccc(Cl)cc2)(C(F)(F)F)C(=O)N3)cc1 (stereo not drawn)	-2%&10%
CCC1=Nc2cc(C(=O)NCC3CCCO3)ccc2Sc2ccc(Cl)cc21 (stereo not drawn)	8%
COc1ccc(C)cc1NC(=S)NNC(=O)c1ccccc1Cl	0%
Cc1cccc(OCCCn2c(=O)oc3ccccc32)c1	16%
COc1ccc(-c2ccc(OC)c(OC)c2OC)c(OC)c1OC	-2%
COc1ccc(NC(=O)/C(N=Nc2cc(S(=O)(=O)Nc3ccc(OC)cc3)ccc2OC)=C(\C)O)cc1	-2%
Cc1ccc2cc(C)c3nnc(SCC(=O)NCc4ccco4)n3c2c1	0%
COc1cc(NC(=O)C2=CC(c3ccco3)=NS(=O)(=O)N2C)cc(OC)c1OC	-9%&18%
COc1cc(OC)c2c(-c3ccccc3)cc(=O)oc2c1C(CCN1CCCCC1)c1ccc(N(C)C)cc1 (stereo not drawn)	-4%&-6%
CCCc1ccc(-c2csc(NC(=O)Cc3cccs3)n2)cc1	-6%
O=C1Nc2ccc(S(=O)(=O)N3CCCC3)c3ccc(S(=O)(=O)N4CCCC4)c1c23	-30%
COc1ccccc1C/C(N)=N/OC(=O)COc1ccc2ccccc2c1	8%

Arranged by SMILES length (lowest first): some entries from above.
SMILES	VDR inh
O=C(NCCC(=O)N1CCCC1)c1ccccc1Cl	-16%
O=C(CN1CCN(C(=O)c2ccco2)CC1)Nc1ccc(Br)cc1	-13%
O=C(N/N=C/c1ccncc1)c1cccc(NC(=O)c2ccc(Cl)cc2)c1	11%
